Screening results: PubChem, Broad Institute
AF4-AF9 inh = inhibitors of human MLL-AF4/AF9 interaction. P42568. AlphaScreen, biotin-AF4 peptide binding to FLAG-AF9. inhibition, % at 10 µM. 350,000 tested, 0.47% active;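 active = every replicate reaching a set inhibition limit, whatever the replicate mean, cut at about 25% in these data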;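 note: 0% = plate neutral control median and 100% = total signal loss; the record names both 10 and 1 µM as test concentration; the first replicate is given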
Target sequence (P42568 whole entry, looked up): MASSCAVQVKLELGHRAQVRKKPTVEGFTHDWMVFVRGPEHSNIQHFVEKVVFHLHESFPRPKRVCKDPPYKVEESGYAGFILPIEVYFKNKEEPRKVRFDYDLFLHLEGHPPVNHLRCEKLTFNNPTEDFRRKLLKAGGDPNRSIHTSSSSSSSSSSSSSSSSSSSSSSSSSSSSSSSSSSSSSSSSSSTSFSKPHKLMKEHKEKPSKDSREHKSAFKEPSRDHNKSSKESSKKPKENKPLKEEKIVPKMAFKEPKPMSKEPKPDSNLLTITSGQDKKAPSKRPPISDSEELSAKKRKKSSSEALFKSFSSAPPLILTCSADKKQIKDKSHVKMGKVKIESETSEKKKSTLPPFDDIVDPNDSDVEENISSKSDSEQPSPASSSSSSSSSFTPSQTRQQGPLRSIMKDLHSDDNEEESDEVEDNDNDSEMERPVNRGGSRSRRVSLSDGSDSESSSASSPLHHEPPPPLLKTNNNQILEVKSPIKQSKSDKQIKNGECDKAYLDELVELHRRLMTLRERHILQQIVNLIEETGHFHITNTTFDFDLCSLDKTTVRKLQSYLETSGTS
FGF22 binding = shifts melting point of recombinant human FGF22 | Q9HCT0 | recombinant FGF22 thermal shift, SYPRO orange fluorescence; percent of sucrose octasulfate shift, DMSO zero | calls only at 9.99 µM | 340,000 tested, 1.5% active;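 active = melting point raised past a set limit in the mean and every replicate; three in four hits are not shown here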
Target sequence (Q9HCT0 whole entry, looked up): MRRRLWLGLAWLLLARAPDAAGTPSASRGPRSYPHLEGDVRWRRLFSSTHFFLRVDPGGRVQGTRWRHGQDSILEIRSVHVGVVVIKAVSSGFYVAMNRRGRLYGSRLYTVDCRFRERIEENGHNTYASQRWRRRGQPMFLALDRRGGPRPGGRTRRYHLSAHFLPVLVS
rRNA inh HTS = inhibits bacterial ribosomal RNA function over humanized ribosomes; E. coli WT GFP vs humanized-ribosome RFP mutants, fluorescence, 24 h; active compounds read low; DMSO median 0, no signal -100; GFP signal change (wild-type ribosome), % (no concentration beside the values); 350,000 tested, 1.6% active;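 active = significant combined selectivity score with lowered wild-type GFP, culture density cut under 30%, mutant RFP and density less affected; inactive = any of these conditions unmet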; note: one replicate is shown; some compounds called inactive have numbers as strong as hits
rRNA inh HTS OD600 = second read-out of rRNA inh HTS, no call of its own (marks repeat the call); OD600 change, %; measured here: OD600 growth;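 optical density of the mix in the first replicate; 0 = DMSO median and -100 = no signal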
rRNA inh HTS RFP = recorded beside rRNA inh HTS, whose call it bears; RFP signal change, %; measured here: RFP humanized mutant strains;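 first replicate; 0 = DMSO median and -100 = no signal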
The depositor's hits bear a star; i = inactive; & = joins results of further samples. An excerpt (hit frequency here may not be typical).

| rRNA inh HTS | rRNA inh HTS RFP | AF4-AF9 inh | FGF22 binding | rRNA inh HTS OD600 | SMILES |
| --- | --- | --- | --- | --- | --- |
| -5 | 11 | -1.1 | i | -5 | COc1ccc(CNC(=O)c2cc3c(c(-c4cccc(-c5ccc(C#N)cc5)c4)n2)[C@H](CCO)N([S@@](=O)C(C)(C)C)C3)cc1 |
| 20 | 0.2 | -0.8 | i | 12 | COC(=O)[C@]12C[C@H](CC(=O)NCc3cccc4ccccc34)C(=O)N(CCC3=CCCCC3)C1=C[C@H](C(C)(C)C)O[C@@H]2C |
| -2 | -1.5 | -0.9 | i | -1 | Cc1ccc(S(=O)(=O)NCC[C@@H]2CC[C@@H](NC(=O)Nc3ccccc3F)[C@H](CO)O2)cc1 |
| 4 | -0.8 | 0.9 | i | 21 | O=C(Nc1cc(F)ccc1F)N1CC(=O)N2[C@H](C1)[C@H](c1ccc(C#CC3CCCCC3)cc1)[C@@H]2CO |
| 7 | 0.4 | -11 | i | 1 | CC(=O)Nc1ccc2c(c1)C(=O)N(C)[C@@H]1CC[C@@H](CC(=O)NCc3ccc(F)cc3)O[C@@H]1CO2 |
| 3 | 1.8 | 7.7 | i | 4 | CO[C@H]1CC[C@H]2CCN(C)C(=O)[C@H](C)[C@@H](OC)CN(C)C(=O)c3cc(C#N)ccc3OC[C@@H]1O2 |
| 2 | 2.6 | 1.7 | i | 5 | Cc1ccc(NC(=O)c2sc3nc(CCl)[nH]c(=O)c3c2C)c(C)c1 |
| 6 | -1.4 | 2.1 | i | 9 | Cc1c(C(=O)OCC(=O)NC2CC2)oc2ccc(Br)cc12 |
| 2 | -0.1 | -1.2 | i | 6 | CO[C@@H]1CN(C)C(=O)c2cc(NC(=O)c3ccccc3)ccc2OC[C@H](C)N(C(=O)CN(C)C)C[C@@H]1C |
| 0 | 0.0 | 5.2 | i | 3 | COc1ccc(-c2cnc3c(c2)C(=O)N([C@@H](C)CO)C[C@@H](C)[C@H](CN(C)Cc2ccccc2)O3)cc1 |
| -5 | 0.1 | 1.5 | i | -12 | C[C@@H]1CCCCO[C@H](CN(C)C(=O)Nc2ccccc2)[C@@H](C)CN([C@@H](C)CO)C(=O)c2cc(NC(=O)Cc3ccccc3)ccc2O1 |
| -3 | -2.5 | -2.7 | i | 1 | Cc1ccc(OCC(=O)Nc2cc(Cl)ccc2-n2cncn2)c(C)c1 |
| 6 | -1.0 | -3.6 | i | 9 | C[C@@H]1CN([C@H](C)CO)C(=O)c2cc(C#C[C@@H](C)O)cnc2O[C@H]1CN(C)CC1CCCC1 |
| 10 | -2.5 | -1.7 | i | 2 | Cc1ccc(C(=O)NC(Cc2ccccc2C(F)(F)F)C(=O)O)cc1 (configuration not stated) |
| -1 | -1.7 | -0.6 | i | 3 | C[C@@H]1CN([C@H](C)CO)C(=O)CCCn2nncc2CO[C@@H]1CN(C)CC1CCCC1 |
| 1 | 4.5 | 2.1 | i | 9 | O=C(NC1CCC1)[C@H]1[C@H](CO)[C@H]2Cn3c(ccc(C4=CCCCC4)c3=O)[C@H]2N1C(=O)C1CCOCC1 |

5 records drawn at random from those above:
| rRNA inh HTS | rRNA inh HTS RFP | AF4-AF9 inh | FGF22 binding | rRNA inh HTS OD600 | SMILES |
| --- | --- | --- | --- | --- | --- |
| -3 | -2.5 | -2.7 | i | 1 | Cc1ccc(OCC(=O)Nc2cc(Cl)ccc2-n2cncn2)c(C)c1 |
| 10 | -2.5 | -1.7 | i | 2 | Cc1ccc(C(=O)NC(Cc2ccccc2C(F)(F)F)C(=O)O)cc1 (configuration not stated) |
| 4 | -0.8 | 0.9 | i | 21 | O=C(Nc1cc(F)ccc1F)N1CC(=O)N2[C@H](C1)[C@H](c1ccc(C#CC3CCCCC3)cc1)[C@@H]2CO |
| 1 | 4.5 | 2.1 | i | 9 | O=C(NC1CCC1)[C@H]1[C@H](CO)[C@H]2Cn3c(ccc(C4=CCCCC4)c3=O)[C@H]2N1C(=O)C1CCOCC1 |
| -5 | 11 | -1.1 | i | -5 | COc1ccc(CNC(=O)c2cc3c(c(-c4cccc(-c5ccc(C#N)cc5)c4)n2)[C@H](CCO)N([S@@](=O)C(C)(C)C)C3)cc1 |

(list continues)
| rRNA inh HTS | rRNA inh HTS RFP | AF4-AF9 inh | FGF22 binding | rRNA inh HTS OD600 | SMILES |
| --- | --- | --- | --- | --- | --- |
| 1 | -0.5 | -1.6 | i | 2 | C[C@@H](NC(=O)C[C@@H]1CC[C@@H](NS(=O)(=O)c2cccc(F)c2)[C@@H](CO)O1)c1ccccc1 |
| -1 | 0.9 | 1.9 | i | -3 | CCC(=O)Nc1ccc2c(c1)C(=O)N(C)[C@H]1CC[C@H](CC(=O)N3CCc4ccccc4C3)O[C@@H]1CO2 |
| -19 | -0.9 | 1.3 | i | -26 | NC(=O)c1cccc(-c2ccnc3c2CC(C(=O)Nc2cccc(C(F)(F)F)c2)O3)c1 (configuration not stated) |
| 4 | -1.1 | -2.0 | i | 2 | COc1cccc(NC(=O)N[C@@H]2CC[C@H](CC(=O)N3CCOCC3)O[C@@H]2CO)c1 |
| -1 | -1.1 | -1.7 | i | -9 | Cc1noc(C)c1NC(=O)Nc1ccc2c(c1)C(=O)N([C@H](C)CO)C[C@@H](C)[C@@H](CN(C)C(=O)Nc1c(C)noc1C)O2 |
| 14 | -0.8 | 5.8 | i | 5 | CC(C)C[C@@H](CN)NC(=O)c1nc[nH]c1C(=O)N[C@@H](C)C(=O)CNC[C@H](C)NC(=O)c1nc[nH]c1C(=O)N[C@@H](CC(C)C)C(=O)O |
| -1 | -1.3 | -0.3 | i | -12 | CC(C)NC(=O)Nc1ccc2c(c1)C(=O)N([C@@H](C)CO)C[C@@H](C)[C@@H](CN(C)C(=O)Nc1ccc(C(F)(F)F)cc1)OCCCC[C@@H](C)O2 |
| 1 | -1.1 | -4.0 | i | 3 | C[C@@H]1CN([C@H](C)CO)C(=O)Cc2cc(NC(=O)Cc3cn(C)c4ccccc34)ccc2O[C@H]1CN(C)C(=O)Nc1ccccc1 |
| -9 | -1.5 | -1.6 | i | -14 | COC(=O)C(CSCc1ccccc1)NC(=O)CCNC(=O)OCc1ccccc1 (configuration not stated) |
| -27 | -3.6 | -4.4 | i | -57 | O=C(Cc1ccccc1)N1CC[C@@H]2[C@H]1c1cc(-c3ccccc3F)ccc1N[C@@H]2CO |
| 2 | 0.6 | 0.8 | i | 1 | CO[C@H]1CN(C)C(=O)c2cc(NS(=O)(=O)CC(F)(F)F)ccc2OC[C@@H](C)N(CC2CCCCC2)C[C@H]1C |
| 2 | 1.6 | 9.3 | i | 3 | CO[C@@H](CN(C)C(=O)c1ccc2c(c1)OCO2)[C@@H](C)CN([C@H](C)CO)S(=O)(=O)c1ccccc1 |
| -4 | -2.8 | 1.0 | i | -4 | CO[C@@H]1CN(C)C(=O)c2ccc(NC(=O)c3cccc(F)c3)cc2OC[C@H](C)N(CC2CC2)C[C@H]1C |
| 5 | -1.4 | -12 | i | 2 | COc1ccc(-c2cnc3c(c2)C(=O)N([C@H](C)CO)C[C@H](C)[C@@H](CN(C)C)O3)cc1 |
| 1 | 0.5 | 0.0 | i | 8 | C[C@@H]1CN([C@H](C)CO)C(=O)c2cc(C#CCN(C)C)cnc2O[C@@H]1CN(C)C(=O)c1ccc2c(c1)OCO2 |
| 0 | -0.3 | -0.9 | i | 0 | CCC(=O)Nc1ccc2c(c1)OC[C@H](C)N(C(=O)c1ccccc1F)C[C@H](C)[C@@H](OC)CN(C)C2=O |
| 2 | -0.3 | -0.9 | i | 6 | C[C@@H]1CN([C@H](C)CO)C(=O)c2cc(NC(=O)CCCN(C)C)ccc2O[C@H]1CN(C)Cc1ccc2c(c1)OCO2 |
| 1 | -1.1 | 0.2 | i | 3 | O=C1NC(Cc2ccccc2)c2nc3cc(F)ccc3c(=O)n2-c2ncccc21 (configuration not stated) |
| -2 | 0.4 | -1.5 | i | 5 | CC(C)N(C)c1ncnc2c1ncn2[C@H]1CN(Cc2ccc(F)cc2)C[C@@H](CO)O1 |
| 6 | -2.9 | -0.6 | i | 17 | Cn1c(=O)n(C)c2cc(NC(=O)c3ccccc3)ccc21 |
| 7 | -2.9 | -2.1 | i | 16 | CCN1CCN(C(=O)c2ccc(CS(=O)(=O)Cc3ccccc3Cl)o2)CC1 |
| -11 | 1.7 | 11 | i | -24 | COc1cccc(-c2ccc3c(c2)O[C@@H](CN(C)Cc2cncnc2)[C@H](C)CN([C@H](C)CO)S3(=O)=O)c1 |
| -51 | -11 | 4.5 | i | -46 | N#CC1C(=O)c2ccccc2C1c1ccccc1 (configuration not stated) |
| 0 | -0.9 | 0.1 | i | 2 | CC(C)NC(=O)N(C)C[C@@H]1OCCCC[C@@H](C)Oc2ccc(NC(=O)Cc3ccccc3)cc2C(=O)N([C@H](C)CO)C[C@H]1C |
| -10 | 3.3 | 0.2 | i | -33 | CC(=O)N(C)C[C@H]1Oc2cc(C#Cc3ccc(F)cc3)ccc2S(=O)(=O)N([C@@H](C)CO)C[C@@H]1C |
| -54 | -3.2 | -1.1 | i | -64 | OC(c1ccc(F)c(F)c1)c1nc(-c2ccc3ccccc3c2)cs1 (configuration not stated) |
| 0 | 1.6 | 0.9 | i | -4 | O=C(C[C@H]1C=C[C@@H](NC(=O)Cc2cccnc2)[C@@H](CO)O1)Nc1ccccc1 |
| -2 | 1.8 | 0.6 | i | -10 | C[C@@H]1CN([C@H](C)CO)C(=O)Cc2cc(NS(=O)(=O)c3ccc(F)cc3)ccc2O[C@@H]1CN(C)C(=O)Nc1ccc(C(F)(F)F)cc1 |
| 0 | -0.6 | 0.5 | i | -5 | CO[C@H]1CN(C)C(=O)c2ccc(NC(=O)c3cccc(F)c3)cc2OC[C@H](C)N(C(C)=O)C[C@H]1C |
| 2 | -2.2 | -0.4 | i | -3 | Cc1ccc(S(=O)(=O)Nc2ccc3c(c2)CC(=O)N([C@@H](C)CO)C[C@H](C)[C@H](CN(C)Cc2ccc(-c4ccccc4)cc2)O3)cc1 |
| -56 | -14 | 9.7 | i | -79 | C[C@H](CO)N1C[C@H](C)[C@@H](CN(C)Cc2ccc(Oc3ccccc3)cc2)Oc2ccc(NS(C)(=O)=O)cc2CC1=O |
| 8 | -0.9 | 0.7 | i | 3 | COC(=O)C(Cc1c[nH]c2ccccc12)NC(=O)c1ccc2nc[nH]c2c1 (configuration not stated) |
| 8 | 0.9 | -6.5 | i | 0 | CN(Cc1ccccc1)N=Nc1nc[nH]c1C(N)=O |
| 6 | 2.0 | -1.3 | i | -1 | COc1ccc(C(O)c2nc(-c3cccc(C(=O)O)c3)cs2)cc1 (configuration not stated) |
| 5 | -1.6 | -11 | i | 7 | C[C@H](CO)N1C[C@H](C)[C@H](CN(C)S(C)(=O)=O)Oc2ncc(C3=CCCC3)cc2C1=O |
| 4 | -0.2 | -2.4 | i | 1 | O=C(c1ccccn1)N1C[C@H]2[C@@H](c3ccccc31)[C@@H](CO)N2C(=O)C1CCCCC1 |
| 2 | 0.4 | 2.0 | i | 1 | COc1ccc(NC(=O)Nc2ccc3c(c2)C(=O)N([C@@H](C)CO)C[C@H](C)[C@@H](CN(C)Cc2ccc(Cl)c(Cl)c2)OCCCC[C@H](C)O3)cc1 |
| -2 | -4.1 | -0.5 | i | 2 | CC(C)NC(=O)Nc1cccc2c1O[C@@H](CN(C)S(=O)(=O)c1ccccc1)[C@H](C)CN([C@H](C)CO)C2=O |
| -4&-2 | -0.4&0.8 | -1.8&-2.4&-3.9 | i | 6&-3 | C[C@@H]1CN([C@H](C)CO)C(=O)CCCn2cc(nn2)CO[C@H]1CN(C)S(=O)(=O)c1ccc2ccccc2c1 |
| 2 | -1.1 | -1.6 | i | 2 | C[C@H](CO)N1C[C@H](C)[C@@H](CN(C)C(=O)Nc2cccc(C(F)(F)F)c2)OCc2ccccc2-c2ccccc2C1=O |
| 1 | 2.6 | 2.3 | i | -9 | Cc1ccc([C@H]2C[C@@H](n3cc(COC(=O)c4ccccc4)nn3)[C@H](O)CN2C(=O)c2cccs2)cc1 |
| 11 | 0.2 | 9.0 | i | 11 | Nc1ncc(S(=O)(=O)c2ccc([N+](=O)[O-])cc2)s1 |
| 3 | 0.7 | 0.1 | i | 1 | CCNC(=O)C[C@H]1CC[C@@H]2[C@H](COc3ccc(NC(=O)Nc4cccc(C)c4)cc3C(=O)N2C)O1 |
| -1 | -3.8 | -7.7 | i | 2 | COc1ccc2c3c([nH]c2c1)[C@@H](CO)N(C(=O)c1cnccn1)CC31CN(S(C)(=O)=O)C1 |
| 1 | 2.4 | 2.7 | i | -8 | CC(C)NC(=O)N(C)C[C@H]1Oc2ccc(NC(=O)Nc3ccc(C(F)(F)F)cc3)cc2CC(=O)N([C@H](C)CO)C[C@@H]1C |
| 4 | -1.2 | 1.4 | i | 15 | COCC(=O)N1CC2(CN(C(=O)c3cccnc3)C2)c2c([nH]c3cc(OC)ccc23)[C@H]1CO |
| -5 | 7.1 | 7.5 | i | -9 | CCCNC(=O)NC[C@H]1[C@@H](c2ccc(C3=CCCCC3)cc2)[C@H](CO)N1C(C)=O |
| -2 | -1.8 | 2.1 | i | 6 | O=C(C[C@H]1CC[C@@H]2[C@H](COC[C@H](O)CN2Cc2ccc(Cl)cc2)O1)NCc1cccc(F)c1 |
